VDR inh: Inhibitors of the vitamin D receptor (VDR): qHTS. hit rate 0.93% among 400,000. Potency, µM, inactives show max response, negative = inhibition, hits mostly inhibitors. VDR-SRC2-3 peptide fluorescence polarization, 2 h. Vitamin D3 receptor (Homo sapiens), P11473; active = well fitted inhibition curve with a large enough effect; inconclusive = small, poorly fitted or top-dose-only effect, or another doubt; inactive = no such curve, though single readings can be large or run the other way; also: series mostly up to about 120 µM
Target sequence (P11473 whole entry, looked up): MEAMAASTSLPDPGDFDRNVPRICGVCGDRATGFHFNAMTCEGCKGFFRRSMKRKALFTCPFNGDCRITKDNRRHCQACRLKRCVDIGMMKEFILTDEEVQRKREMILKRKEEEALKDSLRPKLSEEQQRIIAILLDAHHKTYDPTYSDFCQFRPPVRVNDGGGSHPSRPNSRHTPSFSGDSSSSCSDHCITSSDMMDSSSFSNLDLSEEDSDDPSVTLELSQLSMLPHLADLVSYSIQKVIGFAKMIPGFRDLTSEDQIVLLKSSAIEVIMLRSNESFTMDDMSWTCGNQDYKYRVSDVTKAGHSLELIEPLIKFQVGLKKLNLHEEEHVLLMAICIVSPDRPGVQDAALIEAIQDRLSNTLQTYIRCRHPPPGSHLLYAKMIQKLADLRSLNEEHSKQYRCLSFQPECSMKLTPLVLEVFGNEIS
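Fluorescence polarization assay of small-molecule disruption of VDR binding to coregulator peptide SRC2-3. Compounds and controls pin-transferred, then read after 2 h incubation at ambient room temperature.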
* hit, by the source's call; ? = inconclusive; & = joins results of further samples. % is scaled to controls: 0 for no effect and ±100 for the full control effect; potency is read from the fitted curve at half-maximal effect.

SMILES | VDR inh
COc1cccc(C(=O)NC2CC3CCCC(C2)N3Cc2ccc(C)cc2)c1 (stereo not drawn) | -6%
Cc1cccc(N(C(=O)c2csnn2)C(C(=O)NC2CCCC2)c2ccncc2)c1 (stereo not drawn) | 13%
Cc1cc(O)c(S(=O)(=O)c2ccccc2)c(C)c1NS(=O)(=O)c1ccccc1 | 0%
COc1ccc(C(=O)NCC(=O)OCC(=O)NC23CC4CC(CC(C4)C2)C3)cc1 | -5%
CC(C)NC(=S)NC(c1ccccc1)(c1ccccc1)c1ccccc1 | ?
CC(Nc1n[nH]c(=S)[nH]c1=O)C(=O)OCc1ccccc1 (stereo not drawn) | -26%
CCOC(=O)N1CCN(S(=O)(=O)c2ccc3c(c2)CCN3C(=O)C2CCC2)CC1 | 2%
COc1ccc(-c2nnn(CC(=O)N(CCO)C(C(=O)NC3CCCC3)c3ccc(F)cc3)n2)cc1 (stereo not drawn) | -3%
Cn1ccc(C(=O)NC(=S)Nc2ccc([N+](=O)[O-])cc2O)n1 | 11%
O=C(O)Cc1cccc2ccccc12 | -3%&-2%
COC(=O)c1ccccc1NC(=O)c1nc2nc(C)cc(C)n2n1 | 7%
COCCN1CC(=O)N2C(c3cccc(C)c3)c3[nH]c4ccccc4c3C[C@H]2C1=O (stereo partly drawn) | -9%
O=S(=O)(c1ccc(-c2cnc(C3CC3)o2)cc1)N1CCN(c2ccccc2)CC1 | -12%&10%
CC#CCN(Cc1ccco1)C(=O)c1ccc(OC2CCN(Cc3ccccn3)CC2)cc1 | -7%
Cc1occc1C(=O)n1nnc2ccccc21 | -7%
Cc1c(O[C@@H]2O[C@H](CO)[C@@H](O)[C@H](O)[C@H]2O)c(CO)c(O[C@@H]2O[C@H](CO)[C@@H](O)[C@H](O)[C@H]2O)c2c1O[C@@H](c1ccccc1)C[C@@H]2O | ?
CCc1c(C)nc2ncnn2c1N1CCCC(C(=O)NCc2cccs2)C1 (stereo not drawn) | -3%
COC(=O)C1=C(C)NC(=O)NC1c1ccsc1 (stereo not drawn) | 1%
CC(C)Oc1ccc(/C(O)=C2/C(=O)C(=O)N(CCN3CCOCC3)C2c2ccccc2)cc1 (stereo not drawn) | -6%
CCn1nc(NC(=O)c2cccnc2)c2cc3cccc(C)c3nc21 | 22%
Cc1ccc(CNC(=O)CN(c2ccc(Cl)cc2)S(C)(=O)=O)cc1 | 3%
Cc1ccc(S(=O)(=O)Nc2ccc(O)c(S(=O)(=O)c3ccc(C)cc3)c2)cc1 | 5%
CCn1cc(C(=O)Nc2ccc(C)cc2[N+](=O)[O-])c(C)n1 | 10%
O=C(CCc1ccccc1)Nc1ccc(S(=O)(=O)Nc2nccs2)cc1 | -1%
CN(C)CCCN(C(=O)COc1ccccc1)c1nc2c(F)cccc2s1 | -13%
O=C(NCCCO)C(=O)Nc1c2c(nn1-c1ccc(F)cc1)CSC2 | -1%
COc1cccc(CNC(=O)Cn2ccc3cc(S(=O)(=O)N4CCCCCC4)ccc32)c1OC | 2%
CCOc1ccc(CCNC(=O)COC(=O)c2ccccc2O)cc1OCC | -6%
COc1ccc(C)cc1NC(=O)C(Sc1nnc(Nc2cc(C)ccc2OC)s1)c1ccccc1 (stereo not drawn) | 2%
CSc1ncc(Cl)c(C(=O)C(C#N)c2nc3c(C)cc(C)cc3c(=O)[nH]2)n1 (stereo not drawn) | ?
CNC(=O)COC(=O)c1cc(=O)[nH]c2ccccc12 | 9%
O=S(=O)(c1ccc(Cl)cc1)c1snnc1-c1ccccc1 | -2%
Cc1ccc(-c2nc(CS(=O)CC(=O)NCc3ccc(Cl)cc3)c(C)o2)cc1 (stereo not drawn) | -11%
Cc1nc(CNC(=O)c2cc(COc3c(F)cccc3F)on2)cs1 | -6%
O=C(NNC1OC(CO)C(O)C(O)C1O)c1cccnc1 (stereo not drawn) | -10%
N/C(=N\OC(=O)CCCc1ccccc1)c1ccccc1 | -5%
O=C(NCc1ccccc1)c1cnc(N2CCCCC2)c2ccccc12 | -3%
CC(C)Oc1ccc(N2CC(C(=O)Nc3ccccc3F)CC2=O)cc1 (stereo not drawn) | 6%
O=C(c1cccnc1)N1CCN(C(=O)c2cccs2)CC1 | -10%
O=C(CN1C(=O)NC2(CCCC2)C1=O)Nc1cc(S(=O)(=O)N2CCCCC2)ccc1Cl | -5%

Quoted from the entries so far, two compounds:
SMILES | VDR inh
O=C(NCc1ccccc1)c1cnc(N2CCCCC2)c2ccccc12 | -3%
CC(C)Oc1ccc(N2CC(C(=O)Nc3ccccc3F)CC2=O)cc1 (stereo not drawn) | 6%

The results go on.
SMILES | VDR inh
Cc1cnc(C(=O)OCC(=O)N(C(C)C)C(C)C)cn1 | 2%
COc1cccc(OCc2nc3ncc(Br)cc3[nH]2)c1 | -11%
Cn1c(SCC(=O)c2cc3ccccc3o2)nnc1-c1ccccc1 | ?
Cc1ccc(N2CC(C(=O)Nc3ccccc3N3CCCC3)CC2=O)cc1 (stereo not drawn) | -5%
COc1ccc(CC(=O)NCC(=O)N/N=C(/C)c2ccco2)cc1 | 10%
CCCCCCCn1c(NC(=O)CC)nc2ccccc21 | 4%
O=C(O)c1ccc(Nc2nc(-c3ccccc3)c3ccccc3n2)cc1 | -3%
Cc1ccc(S(=O)(=O)NCC(c2ccccc2)N2CCCCC2)cc1 (stereo not drawn) | 8%
COc1ccc(-n2c(=S)[nH]c3cc(C(=O)NCc4ccco4)ccc3c2=O)cc1OC | -11%&14%
COc1ccccc1-c1oc2ccccc2c1-c1ccc2cc[nH]c2c1 | -9%

Individual results from the entries so far:
In VDR inh, O=C(O)Cc1cccc2ccccc12 is entered as -3%&-2%
In VDR inh, Cc1cccc(N(C(=O)c2csnn2)C(C(=O)NC2CCCC2)c2ccncc2)c1 (stereo not drawn) is entered as 13%
In VDR inh, COc1ccc(-n2c(=S)[nH]c3cc(C(=O)NCc4ccco4)ccc3c2=O)cc1OC is entered as -11%&14%

(listing goes on)
SMILES | VDR inh
CCOC(=O)c1c(C)c(-c2ccccc2)n(CC(=O)Nc2cccc(C)c2C)c1C | 0%
O=C1C2CCCN2C(c2ccccc2F)N1c1ccc(F)cc1 (stereo not drawn) | 2%
O=C(c1cccc2ccccc12)C1CCCN(C(=O)CCc2cnccn2)C1 (stereo not drawn) | -2%
O=C(O)CSc1nnc(-c2ccc(Cl)cc2Cl)n1Cc1ccccc1 | 3%
CCN(CC)c1ccc(CN2CCC(C(=O)NCc3ccc(C)cc3)CC2)cc1 | -6%
CCCCC[C@@H]1C=C(C(=O)O)[C@H](c2ccc(C)cc2)N1S(=O)(=O)c1ccc(C)cc1 | -2%
CC(C)CC1C(C#N)=C(N)Oc2n[nH]c(-c3ccccc3)c21 (stereo not drawn) | ?
CCOC(=O)c1ccccc1NC(=O)c1cc2sccc2n1C | -4%
Cc1cc(Cl)ccc1N(CC(=O)NCCSCc1ccco1)S(C)(=O)=O | -6%
CC(=O)N1CCN(CC(=O)Nc2ccccc2C(=O)Nc2ccccc2)CC1 | 6%
CCc1ccn2cc(-c3cc(-c4ccccc4)no3)nc2c1 | -11%
C=CCN1C(=O)N(CC=C)c2cccc3cccc1c23 | -2%
CCNc1nc(NCC)nc(SCCOC(=O)Nc2ccccc2)n1 | -1%
COC(=O)c1ccc(Oc2nc(N3CCCCC3)nc(N3CCOCC3)n2)cc1 | 1%
C[C@H](CO)N1C[C@H](C)[C@@H](CN(C)S(=O)(=O)c2cn(C)cn2)Oc2c(NS(=O)(=O)c3cn(C)cn3)cccc2C1=O | 17%
CC(=O)c1cccc(NC(=O)CSc2nnc(-c3cccnc3)o2)c1 | 7%
O=C(CCN1C(=O)c2ccccc2C1=O)N1CCN(C(=O)c2ccccc2)CC1 | 7%
COc1ccccc1NC(=O)CCS(=O)(=O)c1ccccc1 | 5%
COc1ccc(S(=O)(=O)Nc2ccc(-c3ccc(N4CCCC4)nn3)cc2)cc1F | 2%
COCCNC(=S)Nc1cc(OC)c(OC)cc1C#N | -12%
COc1ccc(OCCNC(=O)CSc2ccc(C(F)(F)F)cc2[N+](=O)[O-])cc1 | -2%
Cc1ccc(Cl)cc1N1CCN(C(=O)C2CCCN(Cc3nc(-c4cccc(Cl)c4)oc3C)C2)CC1 (stereo not drawn) | -21%
COc1ccc(OCC(CO)N2CCN(c3ccccc3)CC2)cc1 (stereo not drawn) | 6%
Cc1c(CCOC(=O)c2cc([N+](=O)[O-])cc([N+](=O)[O-])c2)sc[n+]1CC(=O)c1ccc(Br)cc1 | -5%
COc1ccc(-c2nc(S(=O)(=O)c3ccccc3)c(NCCCN3CCOCC3)o2)cc1 | -21%
CCn1c(SCC(=O)N(C(C)C)C(C)C)nnc1-c1cc2ccccc2cc1O | 0%
Cn1cc(C(c2ccccc2OCC(=O)O)c2cn(C)c3ccccc23)c2ccccc21 | 40µM*
O=C(CCc1nnc(-c2ccc3c(c2)OCO3)o1)NCCc1ccccc1F | ?
O=C(Nc1nccs1)C(Br)C(Br)c1ccccc1 (stereo not drawn) | 28µM*
CC(Cc1ccccc1)C(=O)Nc1ccccc1 (stereo not drawn) | -6%
CCc1ccc(NC(=O)C2CCCN2S(=O)(=O)c2ccc3c(c2)C(C)(C)C(=O)N3C)cc1 (stereo not drawn) | 4%
O=C(NCC(c1ccco1)N1CCCC1)c1cccc(S(=O)(=O)Nc2ccc(Br)cc2)c1 (stereo not drawn) | -12%
Cn1nnc(NC(=O)c2ccc3ccccc3c2)n1 | 1%
COCC(=O)Nc1ccccc1Br | -18%
Cc1ccsc1CN(C)C(=O)CN1C(=O)NC2(CCCc3ccccc32)C1=O (stereo not drawn) | 6%
O=C(NN1C(=O)c2ccccc2NC1c1ccccn1)c1ccccc1 (stereo not drawn) | 9%
CCOc1ccccc1NC(=O)CN1C(=O)COc2ccc(Cl)cc21 | -11%
COc1cccc(C2CC(C(F)(F)F)n3ncc(C(=O)NC(C)(C)C)c3N2)c1 (stereo not drawn) | 6%
COc1ccc(-c2nc3ccccn3c2NC2CCCCC2)cc1SC1CCCCC1 | ?
O=C(c1cccs1)N1CCN=C1SCc1cccc(F)c1 | -18%

Sorted by heavy-atom count (smallest number first): some entries from above.
SMILES | VDR inh
Cn1nnc(NC(=O)c2ccc3ccccc3c2)n1 | 1%
O=C(c1cccs1)N1CCN=C1SCc1cccc(F)c1 | -18%
O=C(NN1C(=O)c2ccccc2NC1c1ccccn1)c1ccccc1 (stereo not drawn) | 9%
COc1cccc(C2CC(C(F)(F)F)n3ncc(C(=O)NC(C)(C)C)c3N2)c1 (stereo not drawn) | 6%
COc1ccc(-c2nc3ccccn3c2NC2CCCCC2)cc1SC1CCCCC1 | ?
CCc1ccc(NC(=O)C2CCCN2S(=O)(=O)c2ccc3c(c2)C(C)(C)C(=O)N3C)cc1 (stereo not drawn) | 4%

Back to the main list with the 4 entries that preceded the break.
SMILES | VDR inh
CCOc1ccccc1NC(=O)CN1C(=O)COc2ccc(Cl)cc21 | -11%
COc1cccc(C2CC(C(F)(F)F)n3ncc(C(=O)NC(C)(C)C)c3N2)c1 (stereo not drawn) | 6%
COc1ccc(-c2nc3ccccn3c2NC2CCCCC2)cc1SC1CCCCC1 | ?
O=C(c1cccs1)N1CCN=C1SCc1cccc(F)c1 | -18%
CCC(Sc1nnc(-c2ccc(F)cc2)c(-c2ccc(F)cc2)n1)C(=O)NC1CCCC1 (stereo not drawn) | 5%
O=C(NCCCc1ccncc1)C1CCC(=O)N(Cc2ccc(Cl)cc2)C1 (stereo not drawn) | 3%
CC(C)(C)NC(=O)C1CCN(C(=O)c2ccc(-c3ccccc3)cc2)CC1 | 19%
O=c1c(O)cc(C2Oc3cc(O)cc(O)c3CC2O)cc2c(C3Oc4cc(O)cc(O)c4CC3O)cc(O)c(O)c12 (stereo not drawn) | 3.5µM*
O=S(=O)(Nc1ccc2ccccc2n1)c1ccccc1Cl | 9%
C/C(=N\NC(=O)Cc1ccccc1)c1ccc(Cl)s1 | 10%
COc1ccccc1/C=C(/CC(=O)NCc1ccc(F)cc1)c1nc2ccccc2s1 | -9%
CCN(CC)c1ccc(CN2CCCCCC2)cc1 | 3%
O=C(NCCS(=O)(=O)c1ccc(Br)cc1)c1ccc(Cl)cc1Cl | 14%
O=C(/C=C/c1cccs1)NC(=S)Nc1ccc(C(=O)O)cc1 | -16%
CS(=O)(=O)Nc1ccc(C(=O)NCCc2ccccc2)cc1 | 9%
COc1ccccc1OCC(=O)NNC(=O)c1ccoc1C | 5%
COc1ccc(S(=O)(=O)NNc2nc(C)cc(C)n2)cc1Br | -9%
Cc1ccc(C(=O)NN2C(=O)CSC2=S)cc1 | -2%
CC(NC(=O)C(=O)NN=C1CCCC1)c1ccccc1 (stereo not drawn) | -4%
Cc1ccc2cc(NC(=O)c3ccc(C(C)(C)C)cc3)ccc2n1 | 12%
Nc1cc2sc(-c3ccc(C(=O)O)cc3)nc2cc1Cl | -4%
Cc1ccc(S(=O)(=O)N(C(=O)c2ccncc2)c2ccc(OC(=O)c3ccncc3)c3ccccc23)cc1 | ?
Cc1ccc(OCC(=O)N/N=C2/SCC(=O)N2Cc2ccco2)cc1 | -6%
CCOC(=O)c1c(-n2cnnn2)sc2c1CCCC2 | -26%
O=C(Nc1ccc2c(c1)OCO2)c1cnn2cccnc12 | -6%
Cc1cccc(C)c1NC(=S)N(CCN(C)C)C(C)c1cccnc1 (stereo not drawn) | -7%
O=C1CCCN1CCC(=O)N1CCCC(Nc2ccc(F)c(F)c2)C1 (stereo not drawn) | 2%
Cc1ccc(Nc2c(O)nc[nH]c2=O)cc1 | -23%
CCOc1ccc(NC(=O)c2cc(C)nc3c2c(C)nn3-c2ccc(C)cc2)cc1 | 5%
Cc1nc2cc(NC(=O)c3cccc(S(C)(=O)=O)c3)ccc2o1 | -3%
CCOC(=O)N1CCc2c(sc3c2C(=O)NC(c2ccc(C(=O)OC)cc2)N3)C1 (stereo not drawn) | -2%
CC12CCC(C(=O)N(CC(=O)O)C1=O)C2(C)C (stereo not drawn) | 7%
Cc1ccc(C)c(CNC(=O)CCn2cccn2)c1 | 11%
CCOC(=O)C1=C(CS(=O)(=O)c2ccccc2)NC(=O)NC1c1ccc(O)c(OC)c1 (stereo not drawn) | -4%

Bioassay records: PubChem, National Center for Advancing Translational Sciences (NCATS)

Some of the compounds tested, so the mix of outcomes need not match the whole.
